Source: PubChem
Vaccinia Venus: qHTS for Stage-Specific Inhibitors of Vaccinia Orthopoxvirus: Venus Reporter Primary qHTS. Vaccinia virus Venus reporter expression, fluorescence. Potency, µM (series often up to 36.5 µM), without a hit: at the highest dose activity change, negative = inhibition, actives largely listed as inhibitors. 0.46% of 330,000 active. AID 720580, 2013; active means well fitted inhibition curve with a large enough effect; inconclusive means small, poorly fitted or top-dose-only effect; inactive means no such curve, though single readings can be large or run the other way; tested in A549 cells; also: nearly all actives have a fitted effect of over 30% in size; inactives centre near -10
Vaccinia mCherry: qHTS for Stage-Specific Inhibitors of Vaccinia Orthopoxvirus: mCherry Reporter Primary qHTS. Potency, µM (doses to about 36.5 µM), without a hit: at the highest dose activity change, negative = inhibition, hits mostly inhibitors. 0.63% of 310,000 active. Vaccinia virus mCherry reporter infection, fluorescence; about a quarter of the inactives have no number. AID 720579, 2013; active = well fitted inhibition curve with a large enough effect; inconclusive = small, poorly fitted or top-dose-only effect; inactive = no such curve, though single readings can be large or run the other way; tested in A549 cells; also: nearly all actives have a fitted effect of over 35% in size; inactives centre near -10
Active calls of the source: *; i = inactive; ? = inconclusive; / = no result given; [ ] = another dose, or the depositor's remark. % is scaled to controls: 0 for no effect and ±100 for the full control effect; potency is read from the fitted curve at half-maximal effect.

SMILES	Vaccinia Venus	Vaccinia mCherry
O=C(Cc1ccc(F)cc1)Nc1ccc(S(=O)(=O)N2CCCCC2)cc1	-2%	i
CC(C)(C(=O)O)c1ccc([C@H](O)CCCN2CCC(C(O)(c3ccccc3)c3ccccc3)CC2)cc1	-7%	i
COc1cc(CN2C[C@@H](CO)O[C@@H](n3cnc4c(N5CCOCC5)ncnc43)C2)cc(OC)c1OC	-4%	6%
Cc1c(Cc2ccccc2)sc(NC(=O)c2ccco2)c1C(N)=O	-27%	?
C=C(C)CSc1nc(-c2ccccc2)cc(-c2ccc(OC)cc2)c1C#N	-10%[7.34 µM]	-8%[7.34 µM]
Cc1cccc(OCCC(=O)NNC(=O)Cn2nc(C)cc2C)c1	0%	-8%
C/C(=N\NC(=O)c1ccc(-c2ccccc2)cc1)c1cccc(N)c1	-13%	0%
O=C(CC(c1ccccc1)c1cc(Br)ccc1O)NCc1ccco1 (centres undefined)	-19%	/
CCOP(=O)(OCC)C(NS(=O)(=O)c1ccccc1)C(Cl)(Cl)Cl (centres undefined)	-3%	-5%
O=C(O)CCC(=O)N1CCN(Cc2ccc3c(c2)OCO3)CC1	-9%	-2%
O=S(=O)(NCC[C@@H]1CC[C@H](NS(=O)(=O)c2cccc(F)c2)[C@@H](CO)O1)c1cccc(F)c1	?	?
CN1CCN(C(=O)c2cccc(S(=O)(=O)N3CCCCC3)c2)CC1	-4%	i
CS(=O)(=O)N(CC(=O)N1CCN(c2ccccc2F)CC1)c1cccc(C(F)(F)F)c1	-20%	-7%
O=C(CN1C(=O)COc2ccccc21)NCCc1ccc(Cl)cc1	-5%	-3%
CC(C(=O)O)c1ccc(C(=O)c2ccccc2)s1 (centres undefined)	-8%	-13%
CC(C)(C)NC(=O)NC(=O)COC(=O)c1c(F)cccc1Cl	-5%	-9%
Cc1ccc(NC(=O)c2cc(S(=O)(=O)N3CCOCC3)c(Cl)cc2Cl)cc1	-29%	?
O=Cc1cccn1-c1cccnc1	5%	i
CCOc1cc(S(=O)(=O)NCc2ccco2)c(OCC)cc1-n1cnnn1	-4%	-14%
Cn1c(=O)c(C(=O)NCc2ccccc2Cl)c(O)c2ccccc21	-8%	-2%
COc1ccc(-n2c(=S)[nH]c3c(sc(=S)n3-c3ccccc3)c2=O)c(OC)c1	-18%	-19%
CCOC(=O)C1=C(C)N(CCCC(=O)O)C(=O)NC1c1ccccc1OS(=O)(=O)c1ccc(C)cc1 (centres undefined)	-4%	-9%
Cc1ccccc1NC(=O)c1ccccc1NC(=O)CCC(=O)O	-2%	-13%
O=C1OCC2=C1C(c1ccc(F)cc1)Sc1ccccc1N2 (centres undefined)	-23%	?
COc1ccccc1C(=O)NCc1ccc2c(c1)OCO2	-11%	i

(list continues)
SMILES	Vaccinia Venus	Vaccinia mCherry
Cc1ccnc(OC(C(=O)O)C(OCc2ccccc2)(c2ccc(F)cc2)c2ccc(F)cc2)n1 (centres undefined)	-16%	i
CCCCOC(=O)c1nnc(-c2ccccc2)o1	-14%	i
Cc1cc(C)cc(-n2c3ccc(NC(=S)NC4CCCCC4)cc3c(=O)n2C)c1	-28%	0%
COC(=O)c1cc(NS(=O)(=O)c2ccc(N3CCOCC3)c(NC(C)=O)c2)cc(C(=O)OC)c1	-3%	3%
CN(C)NC1=CC(=[N+]2CCCC2)CC(C)(C)C1	-5%	-8%
COc1ccc(-c2nnn(CC(=O)NCCc3ccc(OC)c(OC)c3)n2)cc1	-15%	-13%
CC1CN(C(=O)CN2C(=O)c3ccccc3C2=O)CC(C)O1 (centres undefined)	-14%	/
Cc1cc(OC(C)C(=O)Nc2c(C(=O)c3ccc(F)cc3)oc3ccccc23)ccc1Cl (centres undefined)	-9%	-7%
COc1ccc(N2C(=O)CC(Sc3nccc(C)n3)C2=O)cc1 (centres undefined)	-9%	i
Cn1cc([C@@H]2C[C@H]3CN(Cc4cccc(Cl)c4)C(=O)[C@]34CCCN24)c(-c2ccccc2)n1	-11%	?
CCN(CC)C(=O)CN1C(=O)/C(=C/c2ccccc2)SC1=S	-7%	-21%
COc1cc(CN(C(C)=O)c2ccccc2C(=O)O)ccc1[N+](=O)[O-]	-11%	i
C=CCNC(=S)NNc1nc(Nc2ccccc2)nc(N2CCCCC2)n1	-7%	-10%
COc1ccc2c(c1)c(=O)c(C(=O)c1ccccc1)cn2Cc1ccccc1	1%	-12%
O=C(N/C(=C/c1cccc([N+](=O)[O-])c1)C(=O)N1CCOCC1)c1ccc(Br)cc1	-14%	-10%
CC(=NNC(=O)c1ccncc1)c1ccc(O)cc1O	?	?
Cc1ccc(NS(=O)(=O)c2ccccc2)c([N+](=O)[O-])c1	-1%	-11%
CC(C)CNC(=O)[C@H]1N2C(=O)c3ccccc3C2SC1(C)C (some centres undefined)	-15%	-12%
COC(=O)C(Cc1ccccc1)P(=O)(c1ccccc1)c1ccccc1 (centres undefined)	-13%	-3%
Cc1ccc2nsnc2c1NC(=S)NC(=O)c1ccco1	-2%	-3%
COc1ccc(C)cc1NC(=O)Cn1c(=O)c(C(F)(F)F)nc2ccccc21	4%	-2%
CC(C1CC2CCC1C2)n1c(-c2ccco2)n[nH]c1=S (centres undefined)	1%	2%
COc1cc(CCC(=O)OCC(=O)c2ccc[nH]2)cc(OC)c1OC	-8%	-13%
COc1ccccc1C(=O)Nc1ccc(S(=O)(=O)N(C)c2ccccc2)cc1	-18%	-24%
CC(C)C(=O)N1CCN(CCN=CC2=C(O)CC(c3ccco3)CC2=O)CC1 (centres undefined)	-12%	-15%

Pulled by compound from above, 5 records:
SMILES	Vaccinia Venus	Vaccinia mCherry
CC(C)CNC(=O)[C@H]1N2C(=O)c3ccccc3C2SC1(C)C (some centres undefined)	-15%	-12%
CCN(CC)C(=O)CN1C(=O)/C(=C/c2ccccc2)SC1=S	-7%	-21%
COc1ccc(-c2nnn(CC(=O)NCCc3ccc(OC)c(OC)c3)n2)cc1	-15%	-13%
CC(C)C(=O)N1CCN(CCN=CC2=C(O)CC(c3ccco3)CC2=O)CC1 (centres undefined)	-12%	-15%
COc1ccc2c(c1)c(=O)c(C(=O)c1ccccc1)cn2Cc1ccccc1	1%	-12%

Whole records as entered above. Screens in order: Vaccinia Venus	Vaccinia mCherry
Shown for COc1cc(CN(C(C)=O)c2ccccc2C(=O)O)ccc1[N+](=O)[O-] : -11%	i
Shown for Cc1ccc2nsnc2c1NC(=S)NC(=O)c1ccco1 : -2%	-3%
Shown for Cc1cc(C)cc(-n2c3ccc(NC(=S)NC4CCCCC4)cc3c(=O)n2C)c1 : -28%	0%

Laid out differently: results already given
Value order: Vaccinia Venus	Vaccinia mCherry
Cc1cc(OC(C)C(=O)Nc2c(C(=O)c3ccc(F)cc3)oc3ccccc23)ccc1Cl (centres undefined)
  -9%	-7%
COc1ccc(-c2nnn(CC(=O)NCCc3ccc(OC)c(OC)c3)n2)cc1
  -15%	-13%
COc1ccccc1C(=O)Nc1ccc(S(=O)(=O)N(C)c2ccccc2)cc1
  -18%	-24%
O=C(N/C(=C/c1cccc([N+](=O)[O-])c1)C(=O)N1CCOCC1)c1ccc(Br)cc1
  -14%	-10%
Cc1ccc(NS(=O)(=O)c2ccccc2)c([N+](=O)[O-])c1
  -1%	-11%

Further entries follow.
SMILES	Vaccinia Venus	Vaccinia mCherry
Cc1ccc(NC(=O)COC(=O)c2csc3c2CCC(C)C3)cc1S(=O)(=O)N1CCCCC1 (centres undefined)	-27%	-16%
COc1ccc(Cl)cc1C=CC=Nc1ccccc1O	3%	i
CCN1C(=O)c2cccc3c(S(=O)(=O)NCc4ccccn4)ccc1c23	-16%	/
CCN1C(=O)c2ccccc2Sc2ccc(NC(=O)Nc3ccc(Br)c(C)c3)cc21	?	?
Cc1cc(=O)[nH]c(SCC(=O)Nc2ccc(S(=O)(=O)N3CCOCC3)cc2)n1	-8%	-20%
COc1ccc(CN2CCCC(n3cc(C(=O)N4CCCCC4)nn3)C2)c(OC)c1 (centres undefined)	9%	-10%
C=CCn1c(SCC(=O)Nc2nnc(C)s2)nnc1C1CC1	-21%	-2%
Cc1cc(N2CCCCC2)nc2ccc(NC(=O)/C=C/c3ccc(OC(C)C)cc3)cc12	?	?
COc1cc(S(=O)(=O)NCc2ccncc2)c(OC)cc1C	0%	11%
O=C(O)c1cccc(N2CCCC2=O)c1	-10%	i
Cc1ccc(-n2c(C)c(C)c3c(NCCO)ncnc32)cc1	-16%	i
CCNC(=S)N1CCC(c2nc3cc(C)c(C)cc3[nH]2)CC1	-19%	i
CCc1cccc2c(-c3ccccc3)nc(SCC(=O)Nc3ccccc3OC)nc12	-4%	-14%
CCOC(=O)c1c(C)[nH]c(C(=O)CSc2ccccc2)c1C	-29%	/
Cn1cnnc1SCC(=O)Nc1sc2c(c1C#N)CCCCC2	-9%	-18%
O=C(CC(c1ccccc1)c1ccccc1)NCC(O)c1ccc([N+](=O)[O-])cc1 (centres undefined)	-15%	?
O=C(c1cc(C2CCCCN2S(=O)(=O)Cc2ccccc2)on1)N1CCOCC1 (centres undefined)	-5%	-6%
COc1ccc(S(=O)(=O)N2CCOC2CNC(=O)C(=O)NCc2ccc3c(c2)OCO3)cc1C (centres undefined)	-26%	-13%
Cc1ccc(-n2c(=O)c(C#N)cc3c(=O)n4ccccc4nc32)cc1	2%	-6%
Oc1ccc(-c2onc(C(F)(F)F)c2-c2cscn2)c(O)c1	-20%	?
COc1ccccc1NC(=O)Cn1c(CCC(=O)O)ccc1-c1ccc(C)cc1	-1%	-5%
CC(=O)N[C@H](Cc1c[nH]c2ccccc12)C(=O)O	-12%	-4%
CC(=O)Nc1cc2c(cc1[N+](=O)[O-])-c1ccccc1C2=NO	2%	-2%
CC(=O)N1CCc2cc(S(=O)(=O)NC(CC(C)C)C(=O)NCCc3ccc(C)cc3)ccc21 (centres undefined)	8%	-1%
Cc1cc(C)c(C)c(S(=O)(=O)N2CCC(C(=O)N(C)Cc3nc4ccccc4c(=O)[nH]3)CC2)c1C	?	27%

Continued:
SMILES	Vaccinia Venus	Vaccinia mCherry
O=C1c2ccccc2C(=O)N1c1ncccn1	-11%	i
COc1ccc(-c2cc(C(F)F)n3ncc(C(=O)N4CCCc5ccccc54)c3n2)cc1	-14%	i
CCc1ccc(NS(=O)(=O)c2cccs2)cc1	-4%	i
Cc1ccc2[nH]c(CSc3nnc(NC(=O)COc4ccccc4)s3)cc(=O)c2c1	-8%	-10%
O=C(c1cnc2n(c1=O)CCS2)N1CCc2ccccc21	-14%	i
O=C(Nc1ccc(OC(F)(F)F)cc1)C1CCCN(S(=O)(=O)c2cccnc2)C1 (centres undefined)	-29%	-29%
CC(OC(=O)c1cc2sccc2n1C)C(=O)NC(C)(C)C (centres undefined)	-20%	-4%
CCOc1ccc(NC(=O)CN(C)C(=O)C2CCN(c3ncnc4sc(C)c(C)c34)CC2)cc1OCC	?	?
Cc1ccc(-n2c(C)n[nH]c2=S)cc1C	-7%	-18%
CCc1cc[n+](-c2nc3ccccc3nc2[N-]S(=O)(=O)c2ccc(Br)s2)cc1	23%	-7%
O=C1NC[C@H](c2ccccc2)OC(=O)[C@@H](Cc2ccc(F)cc2)C/C=C\C[C@H]1CC(=O)N(CCO)Cc1ccccc1	?	?
O=C(Nc1ccccc1)OCCOc1ccc(Cl)cc1Cl	-1%	-13%
O=C(CCN1C(=O)S/C(=C/c2ccc(Cl)cc2)C1=O)N1CCOCC1	-10%	-15%
CC1CN(c2ccc(C(F)(F)F)cc2[N+](=O)[O-])CCN1S(C)(=O)=O (centres undefined)	-19%	i
Cc1cc(C)n2nc(SCC(=O)N(Cc3ccccc3)C3CCS(=O)(=O)C3)nc2n1 (centres undefined)	-8%	i
COc1ccc(NC(=O)Cc2nnc(SCC(=O)Nc3ccc(F)cc3)n2C)cc1	-14%	14%
CCNC(=O)C1(C)CCCN1C(=O)c1ccc(N(C)C)cc1 (centres undefined)	6%	31%[activator]
COc1ccc(C2C3C(C)=NN=C3CC(C)(O)C2C(C)=O)cc1 (centres undefined)	-11%	i
O=C(Nc1ccc(Cl)cc1C(=O)N1CCCC1)c1cccc([N+](=O)[O-])c1	-15%	?
COc1ccc(C2C(C#N)=C(N)OC3=C2C(=O)CCC3)cc1Cn1cc([N+](=O)[O-])cn1 (centres undefined)	-1%	-3%
CN(CCC(=O)Nc1cc(S(=O)(=O)N(C)C)ccc1Cl)CC(=O)Nc1ccc(F)cc1	-15%	-17%
Nc1ccccc1Nc1cccc(C(F)(F)F)c1	?	?
Cn1cccc1C(=O)NCCc1ccccc1	2%	6%
COc1ccc2[nH]cc(CCNC(=O)COc3ccc4ccc(=O)oc4c3)c2c1	-6%	-2%
COc1ccc(NC(=O)c2sc(=O)n(Cc3cccc(C(F)(F)F)c3)c2C)cc1OC	-19%	-2%

Further structures:
SMILES	Vaccinia Venus	Vaccinia mCherry
O=C(c1cccc(F)c1)N1CCCN(C(=O)c2cccc(F)c2)CC1	0%	-2%
CC(NC(=O)CN1CCN(c2ncccn2)CC1)c1ccc(F)cc1 (centres undefined)	-9%	/
CCCNC(=S)Nc1ccc(F)cc1F	-16%	-9%
CCCn1c(SCC(=O)c2ccc(CC)cc2)n[nH]c1=O	-9%	/
Cc1cccc(CNC(=O)CS(=O)(=O)c2cccc3nsnc23)c1	3%	-2%
CCOC(=O)c1c(C)[nH]c(C(=O)OCC(=O)c2ccc(OC)cc2OC)c1C	-10%	-7%
Cc1cc2c(o1)CC(C)(C)CC2=O	1%	i
CC(C)[C@H](NC(=O)c1ccccc1)C(=O)OCC(=O)c1ccc(S(=O)(=O)N2CCCCC2)cc1	-5%	-11%
COc1cccc(CN2C(=O)CN(C3CCCCC3)C(=O)C2c2ccc(OC(C)C)c(OC)c2)c1 (centres undefined)	-13%	-2%

Rows were taken by chance. Share with any hit: about 0.82%.
